VDR inh = Inhibitors of the vitamin D receptor (VDR): qHTS | Potency, µM, inactives show max response, negative = inhibition, hits mostly inhibitors | VDR-SRC2-3 peptide fluorescence polarization, 2 h | Vitamin D3 receptor (Homo sapiens), P11473 | actives 0.93% (n = 400,000); active = well fitted inhibition curve with a large enough effect; inconclusive = small, poorly fitted or top-dose-only effect, or another doubt; inactive = no such curve, though single readings can be large or run the other way; also: series mostly up to about 120 µM
Target sequence (P11473 whole entry, looked up): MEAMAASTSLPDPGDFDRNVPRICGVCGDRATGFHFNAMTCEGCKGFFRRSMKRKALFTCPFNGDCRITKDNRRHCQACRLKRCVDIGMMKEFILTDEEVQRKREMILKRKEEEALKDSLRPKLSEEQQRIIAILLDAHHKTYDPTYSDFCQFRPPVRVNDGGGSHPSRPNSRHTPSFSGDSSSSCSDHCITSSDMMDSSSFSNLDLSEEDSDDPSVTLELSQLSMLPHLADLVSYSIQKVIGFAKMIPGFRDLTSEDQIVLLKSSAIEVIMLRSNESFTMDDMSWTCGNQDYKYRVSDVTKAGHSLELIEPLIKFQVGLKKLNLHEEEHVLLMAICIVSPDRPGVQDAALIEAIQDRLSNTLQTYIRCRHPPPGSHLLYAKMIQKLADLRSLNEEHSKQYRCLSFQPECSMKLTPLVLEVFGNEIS
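Compounds are added to VDR with labelled SRC2-3 coactivator peptide and held 2 h at room temperature. Inhibition of the VDR–peptide interaction is then read as a change in fluorescence polarization.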
An asterisk follows results filed as active; ? = inconclusive; & = joins results of further samples. % is scaled to controls: 0 for no effect and ±100 for the full control effect; potency is read from the fitted curve at half-maximal effect. These rows are one share of the data (hit frequency here may not be typical).

SMILES | VDR inh
COc1ccc(NC(=O)CN2CCN(CC(=O)Nc3ccccc3Cl)CC2)cc1 | 13%
COc1ccccc1NC(=O)Cc1noc(CSc2nnc(C(F)(F)F)n2C)n1 | -17%
NN1C(=O)/C(=C\c2ccco2)SC1=S | 22%
Cc1ccccc1NC(=O)N1CCc2c(sc3c2CCCC3)C1c1ccccc1 (configuration not stated) | 4%
CCN(C[C@H]1N[C@@](CC)(C(=O)OC)[C@H]2C(=O)N(Cc3ccccc3)C(=O)[C@@H]12)C(=O)NC(C)C | -3%
COc1ccc(S(=O)(=O)NNc2nc(C)cc(C)n2)cc1[N+](=O)[O-] | -17%
COc1ccc(CNC(=O)C2CCCN(C(=O)Nc3ccccc3OC)C2)cc1 (configuration not stated) | 9%
CCOC(=O)C1=C(C)N=c2s/c(=C/c3cccc([N+](=O)[O-])c3O)c(=O)n2C1c1cc(OC)c(OC)c(OC)c1 (configuration not stated) | ?
COCCNC(=O)/C(C#N)=C/c1c(N2CCN(C)CC2)nc2ccccn2c1=O | 18%
Cc1ccc(Cl)cc1NC(=O)C(=O)N/N=C/c1ccc2c(c1)OCO2 | ?
CS(=O)(=O)c1ccc(C(=O)OCC(=O)N(CCc2ccccc2)Cc2ccccc2)cc1 | 0%
Cc1cccnc1NC(=O)c1csnn1 | 13%
O=S(=O)(CCN1CCCC1)NCCNS(=O)(=O)c1ccc(F)cc1Br | -1%
Cc1ccc(NC(=O)CSC(C)C(=O)NCCc2ccccn2)cc1 (configuration not stated) | 5%
COc1ccc(OCC(=O)Nc2nnc(S(=O)(=O)N3CCCCCC3)s2)cc1 | -5%&1%
CC(C)(C)c1nc(SCC(=O)N2CCCC2)c2ccccc2n1 | 11%
CCOC(=O)C1Sc2[nH]c(=O)sc2C(c2ccc(Cl)cc2)C1C(=O)OCC (configuration not stated) | 79µM*
O=c1[nH]c(CSc2nc(-c3ccc(F)cc3)cs2)nc2ccccc12 | -8%
O=C(CN1CCC(C(=O)c2ccc(F)cc2)CC1)Nc1ccccc1 | 8%
CCOC(=O)C1CCN(C(=O)COC(=O)c2oc3ccc(OC)cc3c2C)CC1 | -1%
O=S(=O)(c1cccs1)N1CCc2ccccc21 | 8%
CCOC(=O)C1CCN(S(=O)(=O)c2ccccc2[N+](=O)[O-])CC1 | -3%
COc1cc2c(cc1NC(=O)c1cccnc1)CCCC2 | 17%
O=C(O)c1nn(-c2ccc(F)cc2)ccc1=O | -6%
COc1ccc(C(=O)CSc2nnc(-c3ccco3)o2)cc1 | -3%
Continuation.
SMILES | VDR inh
COc1ccc(-c2nc(CSc3nncn4c3cc3occc34)c(C)o2)cc1 | 10%
COc1cccc2c(N/N=C/c3ccc(O)c(O)c3)cc(C)nc12 | -12%
O=c1[nH]c(C2CCCN(S(=O)(=O)c3ccccc3Cl)C2)nc2c1nnn2Cc1ccc2c(c1)OCCO2 (configuration not stated) | -9%
CCOc1ccc(OCCOCCN2CCOCC2)cc1 | 13%
Cc1cc(C)c(S(=O)(=O)Nc2ccc(N3CCOCC3)cc2)c(C)c1 | 1%
O=C(CC1C(=O)NCCN1Cc1ccccc1C(F)(F)F)NC1CCCCC1 (configuration not stated) | -22%
O=c1cc(CN2CCN(c3ccc(F)cc3)CC2)c2cc3c(cc2o1)CCCC3 | 5%
Cc1cccc(OCCCN2CCOCC2)c1C | -14%
Cc1ccc(NC(=O)COC(=O)C2CC2C)c(S(=O)(=O)N2CCCCC2)c1 (configuration not stated) | -4%
COc1ccc2nc(NC(=O)c3cccc(OCc4c(C)noc4C)c3)sc2c1 | -10%
Cc1ccc(N(CC(=O)Nc2cc(Cl)ccc2Oc2ccccc2)S(C)(=O)=O)c(C)c1 | -3%
CCOC(=O)c1ccccc1-n1nnnc1C | 3%
CN1C(=O)CS/C1=N\NC(=O)COc1cccc2cccnc12 | -6%
N#CCCSc1ccccc1NC(=O)c1cc(=O)c2ccccc2o1 | -22%
O=c1[nH]n2c(-c3ccccc3)nc(O)c2c2ccccc12 | -13%
CCCCOc1ccc(Cn2c(=O)oc3ccc(C)cc32)cc1OC | -7%
O=C(NNS(=O)(=O)c1ccc(C(=O)NC2CCCC2)cc1)c1ccncc1 | -5%
CC1CC(C)CN(C(=O)COC(=O)C2CCN(S(=O)(=O)c3c(Cl)cccc3Cl)CC2)C1 (configuration not stated) | -8%
CN1CCN([C@@H](c2ccccc2)c2ccc(Cl)cc2)CC1 | -7%
COCCNC(=O)/C(C#N)=C/c1ccc(O)cc1 | -21%
O=C1NCCN1c1ncc([N+](=O)[O-])s1 | -10%&-9%
CCOc1ccccc1CN1CCN(Cc2cccc3c2OCO3)CC1CCO (configuration not stated) | -17%
Cc1ccc(CN(Cc2ccco2)C(=S)NCC(=O)NCc2cccnc2)cc1 | -8%
O=C(CCN1C(=O)/C(=C/c2cccc(Br)c2)SC1=S)NNC(=O)c1cccnc1 | -1%
COC(=O)c1ccc(NC(=S)Nc2cccc(C)n2)cc1 | -9%

Random excerpt: 2 compounds from above.
SMILES | VDR inh
CCOC(=O)C1CCN(C(=O)COC(=O)c2oc3ccc(OC)cc3c2C)CC1 | -1%
Cc1ccc(CN(Cc2ccco2)C(=S)NCC(=O)NCc2cccnc2)cc1 | -8%

New compounds follow.
SMILES | VDR inh
C=C1c2cccc(C(F)(F)F)c2O[C@H](C(=O)OCC)[C@@H]1CCC(C)C | -2%
Nc1nonc1-n1nnc(C(=O)N/N=C/c2ccccc2O)c1CN1CCCC1 | -23%
CCOc1ccc(C(=O)CSCC(=O)O)cc1 | -10%
COC(CNC(=O)c1ccc2c(c1)ncn2-c1cc(C)cc(C)c1)OC | 2%
COc1ccc(C(=O)c2cn(Cc3cccc(C)c3)c3cc4c(cc3c2=O)OCO4)cc1 | -15%
O=C(c1cc(=O)c2ccccc2o1)N1CCN(c2ccccc2)CC1 | -1%
COc1cccc2cc(C(=O)Nc3cc(C)cc(C)c3)/c(=N/NS(=O)(=O)c3ccccc3)oc12 | 3%
CC[C@]12c3[nH]c4cc(CCC(=O)N(C)C)ccc4c3CCN1C(=O)[C@@H](CC(=O)NC/C=C(\C)CCC=C(C)C)C[C@@H]2C(=O)N1CCN(C(=O)C2CC2)CC1 | -6%
Cc1ccc(-n2nc(CO)c(C(=O)NC(C)CCCc3ccccc3)n2)cc1C (configuration not stated) | -6%
CN(C)c1ccc2c(c1)Sc1cc(N(C)C)ccc1N2C(=O)c1ccccc1 | -3%
CC(C)(C)c1nn(-c2ccccc2)c2[nH]c(=O)c(C=O)cc12 | -1%
CC(NC(=O)c1ccc(S(=O)(=O)N(C)C)cc1)c1ccccc1 (configuration not stated) | -8%
O=C(CN1CCN(c2ccccn2)CC1)Nc1cccc(F)c1 | -16%
CC(=O)c1cccc(NC(=O)COC(=O)[C@@H](NC(=O)OCc2ccccc2)C(C)C)c1 | 6%
COc1ccccc1C(=O)Nc1ccc2c(c1)nc(CCNC(=O)c1ccccc1)n2C | 5%
COc1ccc(NC(=O)c2c(N)cnn2C)cc1 | 21%
CCn1c(O)c(/C=N/n2cnnc2)sc1=S | -2%
Cc1ccc(C(=O)CSc2nc3c([nH]2)c(=O)n(C)c(=O)n3C)cc1 | -12%
CCOC(=O)CSc1n[nH]c(NC(=O)c2cccc(C(F)(F)F)c2)n1 | ?
COc1ccc(NC(=O)Nc2cccc(C(=O)N3CCOCC3)c2)cc1OC | -17%
CN(CC(=O)Nc1ccc(F)cc1)C(=O)COC(=O)COc1ccc(C#N)cc1 | -14%
COc1ccc(C(=O)CSc2nc(C)cc(=O)[nH]2)cc1 | -14%
COC(=O)c1ccc2cc(OC)cc([N+](=O)[O-])c2n1 | -6%
N#CC1(C#N)C(c2ccccc2)OC23CCCCC2C1(C#N)C(=N)O3 (configuration not stated) | ?
CCCCCCc1c(C)c2ccc(OCC(=O)N[C@@H](Cc3ccccc3)C(=O)O)cc2oc1=O | -28%
Further records follow:
SMILES | VDR inh
Cc1sc2nc(SCC(=O)NCc3ccco3)[nH]c(=O)c2c1C | 0%
CCOC(=O)Cc1csc(NC(=O)CCN2C(=O)c3ccccc3C2=O)n1 | 1%
Oc1ccc(Br)cc1/C=N/N1CCN(Cc2ccccc2)CC1 | -13%
O=C1c2cccnc2C(O)N1Cc1cccs1 (configuration not stated) | -1%
Cc1cccc2sc(NC(=O)[C@H](C)N3C(=O)C4CC=CCC4C3=O)nc12 (some centres not stated) | 8%
CC(C)(C)c1ccc(C2C3=C(CCCC3=O)NC3=C2C(=O)c2ccccc23)cc1 (configuration not stated) | 3%
Cc1cc2c(c(C)nn2-c2ccccc2)c(=O)o1 | -7%
O=C(CN1CCc2ccccc2C1)Nc1ccccc1F | -14%
Cc1ccc(NC(=O)COC(=O)c2ccccc2F)cc1S(=O)(=O)N1CCCCC1 | 11%
CC(Sc1nccn1C)C(=O)NC1(C#N)CCCCC1 (configuration not stated) | 4%
Cc1cc(NC(=O)COC(=O)C2=NN(c3ccccc3)C(=O)CC2)c([N+](=O)[O-])cc1C | 4%
Cc1cc(Oc2ccc(C(C)(C)C)cc2)nc(N2CCOCC2)n1 | 4%
Cc1ccc(-c2csc3nnc(SCC(=O)Nc4cccc(C)n4)n23)cc1 | -13%
CCn1c(=O)c([N+](=O)[O-])c(N2CCSCC2)c2ccccc21 | -14%
CCN1CCN(C(=O)C(N)Cc2ccccc2)CC1 (configuration not stated) | -11%
CCOC(=O)N1CCN(C(=O)NC2CCCCC2)CC1 | -10%
COc1ccc(OC)c(C(=O)NC(CC(N)=O)c2ccc(NCCN3CCCCC3)c([N+](=O)[O-])c2)c1 (configuration not stated) | -7%
CCS(=O)(=O)N1Cc2ccccc2CC1C(=O)OCC(=O)N(C(C)C)C(C)C (configuration not stated) | -1%
Cc1nc(N2CCCCC2)c2c(-c3cccs3)csc2n1 | -23%
O=C(NCCO)c1ccccc1O | 3%
Cc1ccc2c(c1)C(=O)C(=O)N2CCCOc1ccccc1C | 40µM*
CCCNC(=O)[C@H]1O[C@@H]1C(=O)N[C@H](C(=O)N1CCC[C@H]1C(=O)OC)[C@@H](C)CC | -14%
CN(C)C(C(=O)Nc1cc(Cl)cc(Cl)c1)c1ccccc1 (configuration not stated) | -9%
O=S(=O)(NCc1cccnc1)c1ccc2ccccc2c1 | -10%
CCc1cccc(CC)c1NC(=O)COn1nnc2ccc(C(F)(F)F)cc21 | -3%
(list continues)
SMILES | VDR inh
Cc1nnc(SCC(=O)OC2CC(C)CCC2C(C)C)[nH]c1=O (configuration not stated) | -5%
CCOC(=O)c1sc(NC(=O)CSc2nc(O)c(Cc3ccccc3)c(=O)[nH]2)nc1C | -10%
Nc1cc(C(F)(F)F)ccc1-n1cccc1 | -20%
Cc1ccc(C(=O)NCc2cccs2)cc1S(=O)(=O)N1CCCCC1 | 4%
O=C(NCc1cc(C(F)(F)F)cc(C(F)(F)F)c1)C1CC(c2ccc(C(F)(F)F)cc2)=NO1 (configuration not stated) | -5%
O=C(COC(=O)c1ccc([N+](=O)[O-])o1)NC1CCCc2ccccc21 (configuration not stated) | -8%
Oc1c(C(c2ccc(Cl)cc2)N2CCOCC2)sc2nc(-c3ccco3)nn12 (configuration not stated) | -4%
COc1cc(NC(=O)CCCc2nnc3n(C)c(=O)c4sccc4n23)cc(OC)c1OC | 2%
Cc1ccc(CNc2nc(Cl)c(C#N)s2)cc1 | 6%
Cc1cccc(-n2nc3c([n+]2[O-])CCc2nonc2-3)c1C | -10%
CCCCC(=O)Nc1ccc2c(c1)nc1n2CCSC1 | -20%
CCOC(=O)c1ccc(NC(=O)c2nn(C)c3c2COc2ccccc2-3)cc1 | 13%
COc1ccc(CN(CC(=O)NC2CCCC2)C(=O)c2ccc(-c3ccccc3)[nH]2)cc1 | -5%
O=C(Cn1cnc2c(cnn2-c2ccc(F)cc2)c1=O)N1CCCc2ccccc21 | 3%
CN(C)C(=O)c1c([N+](=O)[O-])ncn1C | -2%
CCOc1c(N2CCOCC2)c(=O)c1=O | 9%
COc1cccc(N2CCN(c3ncnc4c3c(-c3ccccc3)cn4-c3ccc(C)cc3)CC2)c1 | 10%
COc1cc(NC(=O)CCc2c(C)nn(-c3ccc4nncn4n3)c2C)cc(OC)c1OC | -1%
CCCCOC(=O)C1Cc2ccccc2C(=O)O1 (configuration not stated) | 9%
O=C(CN1C2=NCCCN2c2ccccc21)c1ccc([N+](=O)[O-])cc1 | 3%

In the list so far, these contain an aryl thioether with sulfur outside any ring.
SMILES | VDR inh
COc1ccccc1NC(=O)Cc1noc(CSc2nnc(C(F)(F)F)n2C)n1 | -17%
CC(C)(C)c1nc(SCC(=O)N2CCCC2)c2ccccc2n1 | 11%
O=c1[nH]c(CSc2nc(-c3ccc(F)cc3)cs2)nc2ccccc12 | -8%
COc1ccc(C(=O)CSc2nnc(-c3ccco3)o2)cc1 | -3%
COc1ccc(-c2nc(CSc3nncn4c3cc3occc34)c(C)o2)cc1 | 10%
N#CCCSc1ccccc1NC(=O)c1cc(=O)c2ccccc2o1 | -22%
Cc1ccc(C(=O)CSc2nc3c([nH]2)c(=O)n(C)c(=O)n3C)cc1 | -12%
CCOC(=O)CSc1n[nH]c(NC(=O)c2cccc(C(F)(F)F)c2)n1 | ?
COc1ccc(C(=O)CSc2nc(C)cc(=O)[nH]2)cc1 | -14%
Cc1sc2nc(SCC(=O)NCc3ccco3)[nH]c(=O)c2c1C | 0%
CC(Sc1nccn1C)C(=O)NC1(C#N)CCCCC1 (configuration not stated) | 4%
Cc1ccc(-c2csc3nnc(SCC(=O)Nc4cccc(C)n4)n23)cc1 | -13%
Cc1nnc(SCC(=O)OC2CC(C)CCC2C(C)C)[nH]c1=O (configuration not stated) | -5%
CCOC(=O)c1sc(NC(=O)CSc2nc(O)c(Cc3ccccc3)c(=O)[nH]2)nc1C | -10%

Source: PubChem BioAssay (National Center for Advancing Translational Sciences (NCATS))
